High-throughput results as filed in PubChem BioAssay.
MT1-MMP act inh: blockers of MT1-MMP proenzyme processing, primary screen, HT1080 RFP-PRO-GFP cells, GFP/RFP fluorescence. GFP/RFP ratio change, % at 20 µM. GFP/RFP ratio fluorescence, overnight; percent of plate control window, DMSO zero. 360,000 compounds, 0.061% hits. Matrix metalloproteinase-14 (Homo sapiens), P50281. AID 651647, 2012;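 active = GFP/RFP ratio change of at least 30% with cell ATP level not reduced by more than half and red fluorescence within 50% of control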; note: strong numbers were not always called active
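Material: RFP-PRO-GFP reporter HT1080 cells. Dosing: single-point 20 µM compound, 1% DMSO. Controls: DMSO and RFP-L50D-GFP cell wells. Timing: cells overnight before dosing, compound overnight, 37 °C, 5% CO2. Measure: GFP/RFP fluorescence ratio.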
Rce1 inhib: yeast Rce1p protease inhibitors, primary screen, biochemical, fluorescence, cell-free homogeneous | CAAX prenyl protease 2 (Saccharomyces cerevisiae (strain ATCC 204508 / S288c)), Q03530 | yeast membranes, quenched prenylated peptide cleavage fluorescence | calls only | 290,000 compounds, 0.27% hits;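 active = fall in fluorescence gain of 50% or more versus controls, with final raw signal at or below 3038400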;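 note: plate controls were neutral control wells for no effect and wells lacking membranes for full effect; tested at 10 µM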
CSC inhib: cancer stem cell viability inhibitors, primary screen, luminescence. 300,000 compounds, 1.1% hits. cancer stem cell-like cells viability. inhibition, % at 7.5 µM;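 active = mean at 75% or more and at least half the replicates too; tested in HMLE shEcad cells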;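 note: 0% = median of negative and 100% = median of positive control wells; the first replicate is given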
PABP polyA inh: PABP poly(A) RNA binding inhibitors, primary screen, biochemical, fluorescence polarization, uHTS; inhibition, % at 35 µM; 290,000 compounds, 1% hits; Polyadenylate-binding protein 1 (Homo sapiens), P11940;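 active = 50% or more with normal probe brightness, or confirmed in later tests; about a fifth of its hits are not listed in these tables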;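 note: calls also rest on retests at 20 µM and on dose response follow-up; controls were probe without protein and protein plus probe with vehicle; some compounds called inactive have numbers as strong as hits; many hits fall short of the cut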
Target sequence (P11940 whole entry, looked up): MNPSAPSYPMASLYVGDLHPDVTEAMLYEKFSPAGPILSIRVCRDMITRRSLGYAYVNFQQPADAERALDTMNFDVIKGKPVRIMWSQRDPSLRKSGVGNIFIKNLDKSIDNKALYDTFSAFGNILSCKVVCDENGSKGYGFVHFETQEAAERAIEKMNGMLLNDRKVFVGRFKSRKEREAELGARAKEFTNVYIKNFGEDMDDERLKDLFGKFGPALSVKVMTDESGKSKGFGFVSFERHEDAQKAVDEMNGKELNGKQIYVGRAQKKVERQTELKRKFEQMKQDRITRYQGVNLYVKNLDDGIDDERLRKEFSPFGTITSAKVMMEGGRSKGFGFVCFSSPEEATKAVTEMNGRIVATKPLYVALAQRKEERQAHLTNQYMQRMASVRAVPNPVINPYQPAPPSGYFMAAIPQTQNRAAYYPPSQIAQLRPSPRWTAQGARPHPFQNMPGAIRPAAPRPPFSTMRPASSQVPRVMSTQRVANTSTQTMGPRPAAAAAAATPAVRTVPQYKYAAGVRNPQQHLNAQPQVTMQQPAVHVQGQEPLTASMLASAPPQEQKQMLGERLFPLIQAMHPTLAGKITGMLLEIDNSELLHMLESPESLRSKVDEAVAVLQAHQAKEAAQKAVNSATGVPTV
Yeast UUG start: modulators of yeast start codon fidelity, primary screen, whole organism, S. cerevisiae, single point, plate reader; S. cerevisiae UUG-firefly luciferase reporter, luminescence/redox ratio; activity score, % at 18.7 µM; 350,000 compounds, 0.13% hits;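 active = replicate mean at a twofold rise or more, about +100% in these data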;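 note: firefly luciferase made from a UUG start codon reports start codon fidelity; reporter light over untreated wells divided by growth signal over untreated wells; some hits fall short of that in this replicate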
eIF4H FP inh: human eIF4H binding inhibitors, primary screen, translation initiation inhibitor project, biochemical, uHTS, fluorescence polarization; Eukaryotic translation initiation factor 4H (Homo sapiens), Q15056; eIF4H fluorescence polarization binding assay; inhibition, % at 35 µM; 290,000 compounds, 0.94% hits; AID 2012, 2009;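 active = 50% or more with normal probe brightness, or confirmed in later tests; about a fifth of its hits are not listed in these tables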;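 note: calls also rest on retests at 20 µM and on dose response follow-up; 0% = protein and probe with vehicle and 100% = probe without protein; strong numbers were not always called active; many hits fall short of the cut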
HIV Env fusion: inhibitors of HIV-1 Env-driven cell-cell fusion, primary screen, HeLa-JRFL effector, CEM21 target cells, luciferase. inhibition, % at 12.3 µM. 360,000 compounds, 1.1% hits;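 active = mean replicate inhibition score of at least 50 and every replicate individually at or above 50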;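 note: 0% = plate neutral controls and 100% = maraviroc near 300 nM; one replicate is shown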
eIF4H FP inh retest: further read-out of eIF4H FP inh, marked with its call; inhibition, %; compound at 20 µM; confirmation average;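 mean of two retest wells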
PABP polyA inh retest: further read-out of PABP polyA inh, marked with its call; inhibition, %; compound at 20 µM; confirmation repeats;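 mean of two retest wells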
MT1-MMP act inh RFP: also measured in MT1-MMP act inh; calls as there; RFP signal change, %; measured here: RFP expression control read;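 0 = vehicle wells; hits needed this value within 50% of zero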
Starred values were filed as active, the others as inactive; i = inactive; x = not tested or not shown. Some of the compounds tested (hit frequency here may not be typical).

SMILES	MT1-MMP act inh	MT1-MMP act inh RFP	Rce1 inhib	CSC inhib	PABP polyA inh	Yeast UUG start	eIF4H FP inh	HIV Env fusion	others
O=C(c1ccco1)N1CCN(C2CCCC2)CC1	4	4	i	x	5	x	6	x
O=C1CCC(=O)N1c1ccc(NCc2ccccc2Cl)c([N+](=O)[O-])c1	9	4	i	9	-10	-14	-14	x
CCOC(=O)c1cc(CN2CCOCC2)oc1-c1ccccc1	-1	-2	i	-13	18	-6	4	-18
COc1ccc(NC(=O)CSc2nc3ccccc3nc2N2CCCC2)cc1Cl	1	0	i	3	-2	10	-4	19
CN(C)c1ccc(NC(=O)COC(=O)c2cc(=O)c3ccccc3o2)cc1	5	7	i	-4	-1	x	6	x
O=c1c(Cc2c(F)cccc2Cl)c(O)ccn1CC1CCCO1 (stereo not drawn)	1	2	i	20	0	x	-2	16
O=C(CCc1nc2ccccc2[nH]c1=O)N/N=C/c1ccccc1	2	4	i	-6	-4	-14	4	9
COCc1cc(=O)n2[nH]c(-c3cccs3)cc2n1	2	4	i	-10	7	2	1	-12
O=C(O)c1ccc(N/N=C/C(Br)=C/c2ccccc2)cc1	0	2	i	5	-5	-28	-9	-129
Cn1c(=O)n(CC(=O)Nc2cccnc2)c2ccccc21	-1	4	i	x	x	3	x	x
CC(C)Oc1ccc(C(=O)NC(=S)Nc2ccc(CN3CCOCC3)cc2)cc1	2	-8	x	41	-10	x	6	3
O=C(Cc1ccc(Br)cc1)Nc1cccc(-c2cn3c(n2)SCC3)c1	-5	-28	i	-4	-12	x	-4	11
CCN1C(=O)CSc2ccc(C(=O)NCCCN3CCOCC3)cc21	5	5	i	-4	-3	-16	4	x
Cc1cccc(NC(=O)CN(C)C(=O)Cc2ccc(-c3ccccc3)cc2)c1C	-2	-4	x	x	x	9	x	8
O=C(NCCCN1CCOCC1)C1CC(=O)N(c2ccccc2)C1 (stereo not drawn)	-2	2	i	-14	16	x	15	0
CC(C)(C)NC(=O)CSc1nc2cccnc2n1C1CCCCC1	-4	-5	i	-12	0	5	4	9
CN(Cc1ccccc1)CC(O)CN(C)Cc1ccccc1	4	5	x	x	x	-16	x	6
Cc1csc(CNC(=O)CC2C(=O)NCCN2Cc2ccc(F)cc2Cl)n1 (stereo not drawn)	-3	5	i	-23	19	5	21	33
COc1ccc(C2(O)CCN(C(=O)NC3CCCCC3)CC2)cc1	7	1	i	13	-6	-18	7	x
CC(NS(=O)(=O)c1ccc(Br)cc1)C(=O)Nc1nc2ccccc2[nH]1 (stereo not drawn)	-2	2	x	x	x	-2	x	3
COC(=O)c1c(NC(=O)/C=C/C(=O)O)sc(C)c1-c1ccc(C)c(C)c1	-1	-5	i	46	26	x	-5	x
CCOC(=O)C1CN(S(=O)(=O)c2ccccc2)c2cc(S(=O)(=O)CC)ccc2O1 (stereo not drawn)	1	3	x	-6	8	2	18	-44
Cc1cccc(N(CC(=O)NCc2ccccc2)C(=O)Cn2nnc(-c3ccc(C)o3)n2)c1	-5	-9	i	13	-8	x	-4	-50
COC(=O)c1cn(NC(=O)c2cc(OC)c(OC)c(OC)c2)c(=O)c2ccccc12	6	-3	i	7	4	-17	4	-92
O=C(NCc1ccc(N2CCCC2=O)cc1)C1CCC(=O)N(Cc2ccccc2F)C1 (stereo not drawn)	2	0	i	-8	-5	1	-14	4
SMILES	MT1-MMP act inh	MT1-MMP act inh RFP	Rce1 inhib	CSC inhib	PABP polyA inh	Yeast UUG start	eIF4H FP inh	HIV Env fusion	others
Cc1ccc(S(=O)(=O)N2CCOCC2)cc1C(=O)OCCOc1cccc(Cl)c1	3	-9	i	-7	x	-12	x	16
O=C(NNC(=O)c1ccccc1Cl)c1csc(N2CCOCC2)n1	-5	0	i	-13	x	x	x	-57
CCC1CCCCN1C(=O)N[C@@H](CCSC)C(=O)OC (stereo partly drawn)	2	2	i	-10	8	-25	2	x
COC(=O)c1c(NC(=O)CSc2ncnc3c2cnn3-c2ccccc2Cl)sc2c1CCCC2	1	-5	i	12	-1	x	1	6
COc1ccc(N2CCN(C(=O)CNC(=O)Cn3c(C)cc4ccccc4c3=O)CC2)cc1	-4	-2	i	2	2	-5	-4	-6
CCN(CC)C(=S)SCC(=O)c1c(C)[nH]c2ccccc12	-7	3	i	17	-12	-23	-20	-75
Cc1cccc(-c2nc(CS(=O)CC(=O)NCCCSC3CCCCC3)c(C)o2)c1 (stereo not drawn)	13	-2	i	-19	-7	8	-3	18
C/C(=N\NC(=O)CCC(=O)NCc1ccccc1)c1ccco1	-1	1	i	-2	-6	2	-3	4
O=C(NC(=S)Nc1ccc(Oc2ccccc2)cc1)c1ccc(Cl)cc1	0	-8	i	59	5	-16	-1	5
CCc1nc2ccc(C(=O)NC3CCN(Cc4ccccc4)CC3)cn2c1N(C)Cc1cccs1	2	-3	x	x	x	-20	x	19
OCc1cccc(-c2cnc3c(Nc4cccc(OC(F)(F)C(F)F)c4)nccn23)c1	2	-11	x	x	x	-16	x	-25
Cc1ccc(-c2noc(CCCC(=O)Nc3cccnc3)n2)cc1	5	-7	x	5	0	x	4	64*
Cc1cc(N2CCN(C)CC2)nc2ccc(NC(=O)CCC(=O)NCc3ccco3)cc12	-1	0	i	1	-6	15	-4	18
CCOC(=O)N1CCN(c2c(NCc3ccc(F)cc3)c(=O)c2=O)CC1	0	-11	i	55	3	x	4	-166
Brc1c(CSc2nncc3ccccc23)nc2ccccn12	1	1	i	-29	26	-20	-6	23
COc1ccc(OC)c(CNC(=O)CCn2nc(C)c3c(C)n(-c4ccccc4)nc3c2=O)c1	2	4	i	-11	0	0	3	-1
CS(=O)(=O)NN1C(=O)c2ccccc2NC1c1cccs1 (stereo not drawn)	-1	4	i	-4	7	x	3	3
COc1ccc(C(=O)Nc2ccccc2C(=O)N2CCCCCC2)cc1OC	0	4	i	-11	4	2	-1	x
Cc1cc(C)c2c(c1)NC(c1cc3c(cc1Br)OCO3)C1CC=CC21 (stereo not drawn)	-18	-3	i	40	-8	-8	-7	48
O=C1C=C(Nc2ccc(Cl)cc2)C(=O)N1c1ccc(Cl)cc1	2	1	i	23	13	x	22	-10
CSCCC(NC(=O)c1ccccc1Br)C(=O)N1CCN(C/C=C/c2ccccc2)CC1 (stereo not drawn)	-4	-15	x	x	x	-2	x	15
CCCn1c(SCC(=O)Nc2cc(C(=O)O)ccc2C)nc2sc3c(c2c1=O)CCC3	-3	3	x	x	x	-14	x	0
Cc1cc(C(=O)Nc2sc(C)c(C)c2C#N)c(C)o1	-6	0	i	16	16	x	-2	-51
COc1ccc(CN2CCN(CC3CC3)CC2CCO)c(C)c1C (stereo not drawn)	2	2	i	35	9	-2	0	-25
COc1ccc(NC(=O)c2ccc(NC(=O)c3cccnc3)cc2)cc1	3	4	x	x	x	-14	x	25

The final 3 entries of the part above lead into the next:
SMILES	MT1-MMP act inh	MT1-MMP act inh RFP	Rce1 inhib	CSC inhib	PABP polyA inh	Yeast UUG start	eIF4H FP inh	HIV Env fusion	others
Cc1cc(C(=O)Nc2sc(C)c(C)c2C#N)c(C)o1	-6	0	i	16	16	x	-2	-51
COc1ccc(CN2CCN(CC3CC3)CC2CCO)c(C)c1C (stereo not drawn)	2	2	i	35	9	-2	0	-25
COc1ccc(NC(=O)c2ccc(NC(=O)c3cccnc3)cc2)cc1	3	4	x	x	x	-14	x	25
COc1ccc(C(=O)Nc2ccc3nc4n(c(=O)c3c2)CCCC4)cc1[N+](=O)[O-]	x	x	i	-3	86*	x	-2	x	eIF4H FP inh retest=-1;PABP polyA inh retest=115*
CCc1ccccc1NC(=O)CCCSc1nc2ccccc2s1	-5	1	i	-4	-3	-10	-5	5
O=C(OCCN1C(=O)CCC1=O)c1ccc(S(=O)(=O)N2CCCCC2)cc1	-2	-3	i	-11	-2	5	7	x
O=C(COc1ccc(S(=O)(=O)N2CCOCC2)cc1)N1CCOCC1	0	2	x	-2	x	-18	x	-3
COc1ccc(S(=O)(=O)N2CCOCC2)cc1NC(=O)CSc1cccc[n+]1[O-]	1	7	i	-1	26	8	-4	20
CN1CCN(S(=O)(=O)c2cccc(C(=O)N3CCc4ccccc43)c2)CC1	-1	0	i	-2	-2	-36	2	-16
CCCNCC1C(Oc2ccc(Cl)cc2)C(=O)N1c1ccccc1C (stereo not drawn)	1	2	i	-1	-10	6	-1	x
Cc1ccc(CCNC(=O)C2CC(=O)N(C3CCCCC3)C2)cc1 (stereo not drawn)	-2	3	i	3	x	-11	x	1
CCN(CC)S(=O)(=O)c1ccc(C(=O)NNC(=O)C2COc3ccccc3O2)cc1 (stereo not drawn)	0	2	x	13	x	-20	x	1
O=C(NCCOc1ccccc1F)Nc1ccc(Br)cc1	1	5	x	1	8	x	1	-4
CCc1nc2c(OCc3ccccc3C(=O)OC)cccn2c1N(C)C(=O)CC(C)C	3	-1	x	x	x	-22	x	11
O=C(NC1CC1)c1cccc(-c2cncc3nccn23)c1	-3	1	x	x	x	-19	x	7
COC(=O)c1nn(-c2ccc(OC)cc2)c(=O)cc1O	-1	3	i	14	4	-9	-1	-7
O=c1cc(O)nc(SCc2ccccc2)n1-c1ccc(F)cc1	2	0	i	-1	-7	-10	-16	-18
COc1ccc(/C=N/N2CCN(Cc3ccc(C)cc3)CC2)cc1Br	4	3	i	8	-7	-6	-2	9
O=C(Nc1cccc(S(=O)(=O)Nc2ccc(Cl)cc2)c1)c1cc2c(s1)CCCC2	-11	-17	i	117*	-6	x	-16	40
CC1(C)CC(=O)C(N=Nc2cccc([N+](=O)[O-])c2)=C(O)C1	2	2	x	-1	5	x	-10	6
COc1cccc(C2CC(c3ccccc3)=NN2S(=O)(=O)c2ccc(C)cc2)c1OC (stereo not drawn)	-23	-12	i	1	-9	x	60	20	eIF4H FP inh retest=-7;PABP polyA inh retest=-4
O=C(NCCCN1CCC(Cc2ccccc2)CC1)c1ccc(CS(=O)c2ccccc2Cl)o1 (stereo not drawn)	3	2	x	x	x	-38	x	20
CCC(CC)C(=O)Nc1cccc(C(=O)Nc2ccc(S(N)(=O)=O)cc2)c1	0	-1	i	-12	-3	x	-5	8
CSc1nc2nc(C(F)(F)F)cc(-c3ccccc3)n2n1	-17	-4	i	-11	5	14	-4	-43
Cc1nnc(SCC(=O)NCCC2=CCCCC2)[nH]c1=O	-1	4	x	-9	x	-12	x	-23
CCC(=O)c1ccc(OC(C)C(=O)NC2(C#N)CCCCC2)cc1 (stereo not drawn)	3	5	i	-10	-1	x	7	-12
O=C(O)[C@H]1CCCC[C@H]1C(=O)NCCNC(=O)[C@@H]1CCCC[C@@H]1C(=O)O	1	4	i	3	6	x	-3	x
CNS(=O)(=O)c1cccc2cccnc12	-1	3	i	-3	5	-14	-2	x
COc1ccccc1-c1noc(CCCC(=O)NC2CCCCC2)n1	-6	-2	i	-5	-5	-11	-1	9
CCOC(=O)C(C(=O)OCC)N(C#N)c1nc(SC)nc(N(C)C)n1	-4	1	i	x	-14	1	-15	-29
O=C(O)[C@H](Cc1ccccc1)N1C(=O)c2c(Cl)c(Cl)c(Cl)c(Cl)c2C1=O	0	1	i	-11	12	-15	3	-6
